# GCN5L2 inh: qHTS Assay for Inhibitors of GCN5L2; GCN5L2 HAT assay, ThioGlo1 CoA-SH fluorescence; Potency, µM (doses to about 58.9 µM), for the others: top-dose activity change, negative = inhibition, actives largely listed as inhibitors; 0.21% of 390,000 active
# Target sequence (Q92830 whole entry, looked up): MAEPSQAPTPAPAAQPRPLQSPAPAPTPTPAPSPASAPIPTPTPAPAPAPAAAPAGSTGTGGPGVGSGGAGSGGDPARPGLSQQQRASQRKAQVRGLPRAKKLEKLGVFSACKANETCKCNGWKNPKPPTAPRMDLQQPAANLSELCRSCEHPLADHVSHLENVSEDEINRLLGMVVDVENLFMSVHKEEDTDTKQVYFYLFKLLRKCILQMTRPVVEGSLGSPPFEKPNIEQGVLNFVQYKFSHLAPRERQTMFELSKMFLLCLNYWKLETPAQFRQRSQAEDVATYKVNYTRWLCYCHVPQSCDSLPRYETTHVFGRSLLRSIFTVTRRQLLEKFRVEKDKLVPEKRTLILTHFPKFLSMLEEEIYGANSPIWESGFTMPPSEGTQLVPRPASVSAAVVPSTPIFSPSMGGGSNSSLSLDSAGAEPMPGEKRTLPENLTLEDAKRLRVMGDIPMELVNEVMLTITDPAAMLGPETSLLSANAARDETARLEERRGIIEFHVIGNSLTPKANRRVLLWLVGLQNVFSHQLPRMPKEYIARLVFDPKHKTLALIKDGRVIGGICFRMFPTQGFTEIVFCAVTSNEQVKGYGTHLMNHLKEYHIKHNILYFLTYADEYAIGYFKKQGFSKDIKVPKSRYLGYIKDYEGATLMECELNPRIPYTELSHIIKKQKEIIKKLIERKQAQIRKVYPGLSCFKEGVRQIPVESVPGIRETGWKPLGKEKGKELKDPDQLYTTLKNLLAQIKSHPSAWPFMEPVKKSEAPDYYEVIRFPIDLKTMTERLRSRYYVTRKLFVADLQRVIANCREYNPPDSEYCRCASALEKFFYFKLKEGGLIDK
#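 Preincubate 20nM GCN5L2 with compound 15 min, RT → add 50uM ThioGlo1 + 75uM H3(1-25) + 70uM acetyl-CoA → read fluorescence 0 and 20 min. Primary qHTS; fluorescent artifacts likely.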
# N370S GC mod: qHTS Assay for Inhibitors and Activators of N370S glucocerebrosidase as a Potential Chaperone Treatment of Gaucher Disease; Lysosomal acid glucosylceramidase (Homo sapiens), P04062; 0.092% of 330,000 active; N370S GC spleen homogenate, 4MU-glucoside fluorescence; Potency, µM (titrated, usually from 59.4 µM), inactives show at the top dose activity change, negative = inhibition, hits mostly inhibitors;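 further: 0% = full enzyme activity and -100% = no enzyme basal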
# Starred values were filed as active, the others as inactive; ? = inconclusive; . = no result given; & = joins results of further samples. The call rests on the fitted dose curve; in most records, active means well fitted curve in the direction sought with a large enough effect; inconclusive means small, poorly fitted or top-dose-only effect, or another doubt; inactive means no such curve, though single readings can be large; an effect the other way counts as inactive or inconclusive. Unless noted, on the % scale 0 is the no-effect control and ±100 the full control effect; potency means the concentration at half of the fitted maximal effect. Not all compounds are listed, and most or all hits are left out here.
SMILES,GCN5L2 inh,N370S GC mod
CCOC(=O)CSc1nc(N)nc(C)c1Br,-10.5%,7.7%
Cc1ccccc1OCC(=O)N/N=C/c1ccc(N(C)C)cc1,-5.1%,0.6%
CN1CCN(C(=O)c2ccc3c(c2)N(Cc2ccc(F)cc2)C(=O)c2ccccc2S3(=O)=O)CC1,-3.1%,.
COc1ccc(-c2nc(CS(=O)CC(=O)NC3CCCC3)c(C)o2)cc1 (stereo not given),0.4%,12.3%
NC(=S)NCCC[C@H](N)C(=O)O,?,0.6%
CCOC(=O)c1cccc(NC(=O)c2oc3c(c2C)-c2[nH]ncc2CC3)c1,-1.4%,.
CCOc1cc(CNc2ccccc2)cc(Br)c1OCC(=O)NC(C)(C)C,-18.6%,6.0%
COc1cccc(-c2cc(C(=O)N3CCN(c4ccccc4OC)CC3)no2)c1,5.5%&-9.7%,-13.3%
CCOC(=O)c1c(C)n(C)c2cc(Br)c(C)cc12,2.9%,11.9%
CCCC(=O)NC(=S)Nc1ccc(NC(=O)C(C)C)c(OC)c1,6.8%,5.0%
Cc1ccc(C)c(N2CCN(S(=O)(=O)c3ccc4c(c3)C(C(C)C)C(=O)N4)CC2)c1 (stereo not given),-16.3%,.
COc1ccc(-c2nc(NC(=O)c3nc4nccc(C)n4n3)sc2C)cc1,-12.5%,-5.4%
O=c1[nH]c2cc3c(cc2cc1CN(CCN1CCOCC1)C(=S)NCC1CCCO1)OCO3 (stereo not given),-1.6%,1.2%
C=CCC1Cc2c(cccc2[N+](=O)[O-])C(CC=C)N1 (stereo not given),17.2%,3.8%
CCC(C)N=C1SCC(C)(/C=N/O)S1 (stereo not given),2.0%,-0.3%
O=C(Cn1cnc2sc3c(c2c1=O)CCCC3)NCC(=O)Nc1c(F)cc(F)cc1Br,0.7%,2.4%
CC(=O)c1cccc(Nc2cc(C)nc3ccc(C)cc23)c1,-5.0%,26.9%
Cc1nc(C)n(CCNC(=O)c2ccco2)n1,0.1%,-16.1%
Clc1ccc(OCCCN2CCCC2)cc1Cl,-1.3%,-19.3%
Cc1ccc(C)c(Cn2c(C(C)O)nc3ccccc32)c1 (stereo not given),-1.7%,0.9%
CCC(C)NCCOCCOc1ccc(Cl)cc1Br (stereo not given),-0.9%,18.1%
O=C(CN1C(=O)NC2(CCCCC2)C1=O)N(Cc1ccco1)Cc1cccs1,-0.7%,-4.0%
Cc1cccc(NC(=O)CCNC(=O)c2ccccc2Cl)n1,-0.5%,-14.8%
Cc1ccc(Cl)cc1N1CCN(C(=O)CN2C(=O)COc3ccc(S(=O)(=O)N4CCC(C)CC4)cc32)CC1,1.3%,.
Cc1cccc(C)c1NS(=O)(=O)c1ccc(-c2ccc(=O)[nH]n2)o1,-5.0%,-16.5%
O=c1oc2c(O)cccc2cc1-c1nc2ccccc2[nH]1,?,10.3%
COc1cccc(C(=O)Nc2ccc(C(=O)OCc3cc(=O)n4cc(C)sc4n3)cc2)c1,5.7%,.
CC(C)C(=O)N1CCC(Cc2ccccc2)CC1,-8.2%,-16.7%
CCOc1ccccc1N(C(=O)c1ccco1)C(C(=O)NC1CCCC1)c1cccnc1 (stereo not given),0.6%,7.1%
O=C(Cc1ncc(C(F)(F)F)cc1Cl)NCCc1ccccn1,0.5%,0.8%
Cc1ccc(NC(=O)/C=C/c2ccco2)nc1,17.1%,2.6%
Cc1cc(-c2nnc(CCC(=O)NC(C)c3cccc4ccccc34)o2)no1 (stereo not given),-5.5%,-26.6%
CCOC(=O)C1(CC2CCCCO2)CCN(S(=O)(=O)c2ccc(OC)cc2)CC1 (stereo not given),-0.5%,?
Cc1ccccc1COn1nnc2ccc(S(=O)(=O)N3CCOCC3)cc21,0.0%,-9.8%
CC(=O)N1c2ccc(S(=O)(=O)NCC3CCC(C(=O)NC4CCCCC4C)CC3)cc2CC1C (stereo not given),-13.5%,-1.8%
CC(=O)N(c1ccccc1)C1CCCC1,5.5%,3.7%
COc1cc(OC)c(C(=O)NNC(=S)NC2CCCCC2)cc1OC,3.7%,17.9%
O=C(NCCS(=O)(=O)N1CCC2(CC1)OCCO2)c1ccc(F)cc1,-2.9%,-3.3%
COc1cccc(N2C(=NC(=O)COc3ccccc3)SC3CS(=O)(=O)CC32)c1 (stereo not given),-4.8%,-4.6%
NC(=O)C[n+]1cccc(C(N)=O)c1,-2.4%,2.0%
COc1ccc(NC2CC(=O)N(c3cccc(C)c3)C2=O)cc1 (stereo not given),-25.9%,4.2%
NS(=O)(=O)c1ccc(NC(=O)CSC2=NC(=O)C(c3ccccc3)C(=O)N2)cc1 (stereo not given),-2.4%,-0.5%
Cc1noc(C)c1COc1cccc(C(=O)OCC(=O)NC(=O)c2ccc(OC(F)F)cc2)c1,-4.0%,8.2%
CCNc1nc(NCC)n2c(SCC(=O)c3ccccc3Cl)nnc2n1,-9.8%,10.1%
C/C(=N\NC(=O)c1ccccc1F)c1ccccn1,-5.4%,2.6%
CSc1nc(Cl)cc(N(CCO)CCO)n1,-22.3%,-5.3%
O=C(CC1C(=O)NCCN1Cc1ccc(-c2ccccc2)cc1)NCCCn1cccn1 (stereo not given),-2.8%,-22.3%
Cc1ccc(NS(=O)(=O)c2cc(C(=O)NCCSC3CCCCC3)ccc2C)cc1,-22.3%,12.9%
Cc1ccc(NS(=O)(=O)c2cn(C)cn2)cc1,-1.1%,2.2%
COc1ccc(-c2nnc(SCC(=O)NCC3CCCO3)n2C)cc1 (stereo not given),?,-12.1%
COC(=O)c1ccccc1NS(=O)(=O)c1ccc2c(c1)CCCN2C(C)=O,-4.8%,.
Cc1cc(C)c2nc(SC3CCOC3=O)cc(C)c2c1 (stereo not given),-0.1%,9.6%
CN1CCN(C(=O)CCC(=O)c2ccc(F)cc2)CC1,3.0%,-2.4%
Cc1ccc(-c2nc3cccnc3s2)cc1NC(=O)C(C)C,-12.0%,.
CCOCCCNC(=O)NC12CC3CC(CC(C3)C1)C2,-2.4%,-0.7%
CN1CCN(C(CNC(=O)C(=O)NC2CCCC2)c2ccc(F)cc2)CC1 (stereo not given),-9.6%,-1.8%
CC1=CC(C)C(/C=N/n2cnnc2)C(C)C1 (stereo not given),-5.2%,-3.2%
CCn1c(SCC(=O)NCc2ccccc2)nnc1C(CO)NC(=O)c1ccccc1 (stereo not given),-13.9%,-3.1%
Cc1cc(C)n(Cc2ccc(Cl)nc2)n1,-4.2%,-3.2%
CC1(C)S[C@@H]2[C@H](NC(=O)[C@H](N)c3ccccc3)C(=O)N2[C@H]1C(=O)O,-9.9%&21.8%&2.9%,1.8%&5.9%&1.7%&-2.5%

# Further entries:
SMILES,GCN5L2 inh,N370S GC mod
Cc1ccc2c(c1)c(C)c(C)n2CC(O)Cn1nc(C)cc1C (stereo not given),-13.3%,3.9%
NS(=O)(=O)c1ccc(NC(=O)c2csnn2)cc1,-4.1%,.
Cn1c(Cc2ccc3c(c2)OCO3)nnc1SCC(=O)N1CCc2ccccc2C1,-2.3%,-16.6%
COc1ccc(Cl)cc1C(=O)NNC1CC(=O)N(Cc2ccc(Cl)cc2)C1=O (stereo not given),-24.0%,4.6%
Cc1noc(C)c1CCC(=O)O,2.3%,1.6%
CCN(CC)CCn1c(NC(=O)c2ccc(C)cc2)nc2ccccc21,-17.6%,0.9%
O=C(O)c1ccc(-n2nc(C(F)(F)F)c3c2-c2ccoc2CC3)cc1,20.1%,-0.2%
CCOc1c(C)cnc2c1c(=O)n(CC(=O)NCC1CCCO1)c(=O)n2C (stereo not given),-4.3%,1.5%
O=C(NCc1nnc(SCC(=O)N2CCOCC2)o1)c1c(F)cccc1Cl,-6.8%,8.2%
CCC(C)NC(=O)CN1C(=O)NC2(CCc3ccccc3C2)C1=O (stereo not given),-2.6%,-7.8%
O=C(O)c1ccc(/C=N/N2CCN(Cc3ccc(Cl)cc3)CC2)cc1,3.4%,-1.6%
CCOc1ccc(CCNC(=O)c2ccc(Nc3nc4ccccc4n4nnnc34)cc2)cc1OCC,-1.3%,.
Oc1cccc(Oc2ncc(C(F)(F)F)cc2Cl)c1,-8.1%,-15.7%
Cc1cc(C)cc(-n2c(C)c3c(C)nnc(C)c3c2C)c1,-4.8%,0.5%
O=C(CCN1C(=O)/C(=C/c2ccc3c(c2)OCO3)SC1=S)Nc1cccc(C(=O)O)c1,-9.1%,-16.8%

# Record cards, as listed above. Screens in order: GCN5L2 inh	N370S GC mod
# Listed for Cn1c(Cc2ccc3c(c2)OCO3)nnc1SCC(=O)N1CCc2ccccc2C1 : -2.3%	-16.6%
# Listed for Cc1ccc2c(c1)c(C)c(C)n2CC(O)Cn1nc(C)cc1C (stereo not given) : -13.3%	3.9%
# Listed for O=C(NCc1nnc(SCC(=O)N2CCOCC2)o1)c1c(F)cccc1Cl : -6.8%	8.2%
# Listed for CCN(CC)CCn1c(NC(=O)c2ccc(C)cc2)nc2ccccc21 : -17.6%	0.9%
# Listed for NS(=O)(=O)c1ccc(NC(=O)c2csnn2)cc1 : -4.1%	.

# Next section
SMILES,GCN5L2 inh,N370S GC mod
CCN1CCC(NCCc2ccc(F)cc2)CC1,-14.8%,0.6%
C[C@]12c3[nH]c4ccccc4c3CCN1C(=O)C(CC(=O)NCc1cccc(C(F)(F)F)c1)C[C@@H]2C(=O)N1CCOCC1 (stereo not given in full),2.2%,.
CCN(CC)S(=O)(=O)c1ccc2nc(COC(=O)c3n[nH]c4ccccc34)[nH]c2c1,-0.4%,1.4%
CCCCN1C[C@H](C)[C@@H](CC(=O)NCc2ccccc2)C1=O,6.6%,-1.0%
COc1ccc(C2=NN(C(=O)CN3CCCCC3)C(c3ccc(OC)cc3)C2)cc1 (stereo not given),2.8%,-12.7%
CCc1nc(SCc2ccc(Br)cc2)n[nH]1,-0.1%,-7.8%
COc1cc(Cn2c(-c3nonc3N)nc3ccccc32)ccc1C,-1.1%,5.4%
Cc1cnc2c(C(=O)O)cnn2c1,-1.0%,-1.1%
Cc1ccc(NC(=O)CSc2n[nH]c(-c3ccncc3)n2)c(C)c1,-1.6%,6.6%
O=C(CN1C(=O)CCC1=O)Nc1cccc2c1C(=O)NC2=O,-0.4%,-13.4%
Cc1cc(=O)oc2cc(OC(=O)c3cncc(Br)c3)ccc12,-7.8%,?
CN1CCN(CCCNC(=O)c2ccc(NC(=O)C3=CSCCO3)cc2)CC1,-17.8%,-28.3%
CCOc1ncccc1C(=O)OC(C)C(=O)NC(=O)NC1CCCCC1 (stereo not given),-8.4%,13.0%
CC(=O)c1cccc(NC(=S)NC(=O)CC(C)C)c1,0.6%,-0.6%
O=[N+]([O-])c1c(C(Cl)Cl)nn(-c2ccccc2)c1N1CCCC1,-9.8%,10.7%

# Rewritten with the structure last: part of the list above.
GCN5L2 inh | N370S GC mod | canonical_smiles
-1.3% | . | CCOc1ccc(CCNC(=O)c2ccc(Nc3nc4ccccc4n4nnnc34)cc2)cc1OCC
-8.4% | 13.0% | CCOc1ncccc1C(=O)OC(C)C(=O)NC(=O)NC1CCCCC1 (stereo not given)
-16.3% | . | Cc1ccc(C)c(N2CCN(S(=O)(=O)c3ccc4c(c3)C(C(C)C)C(=O)N4)CC2)c1 (stereo not given)
-8.1% | -15.7% | Oc1cccc(Oc2ncc(C(F)(F)F)cc2Cl)c1
-1.4% | . | CCOC(=O)c1cccc(NC(=O)c2oc3c(c2C)-c2[nH]ncc2CC3)c1

# Continuation.
SMILES,GCN5L2 inh,N370S GC mod
Cc1ccc(-c2cc3ncc(C#N)c(N)n3n2)cc1,-4.8%,-3.0%
COc1cccc(C(c2sc3nc(-c4ccco4)nn3c2O)N2CCC(O)CC2)c1 (stereo not given),-6.7%,.
COc1ccc(-c2csc(Nc3cccnc3)n2)cc1OC,-12.2%,-2.0%
O=C1/C(=C/c2ccc([N+](=O)[O-])cc2)C=C(c2ccccc2)N1c1ccc(O)cc1,-8.1%,-7.5%
O=C(Nc1ccc(N2CCCCC2)c(Cl)c1)c1ccc(N2CCOCC2)c([N+](=O)[O-])c1,-12.3%,8.8%
O=C(CSc1nnc(-c2c[nH]c3ccccc23)o1)N1CCCCC1,-19.9%,-17.9%
Cc1ccc(C2N(c3ccc(F)cc3)C(=O)C3CCCN32)cc1 (stereo not given),-5.3%,0.4%
CCCCN(CC)CCNS(=O)(=O)c1ccc2c(c1)oc(=O)n2C,-2.6%,0.3%
O=C(c1ccc(Cl)nc1)c1cccs1,-18.1%,-11.1%
CCC(C)NS(=O)(=O)c1ccc(NC(=O)C(Sc2ccccc2)c2ccccc2)cc1 (stereo not given),-10.6%,-29.4%
CC(C)(C)OC(=O)N1CCC(c2c(C(=O)N3CCN(c4ccccc4F)CC3)cnn2C(C)(C)C)CC1,-4.2%,.
C1CCN(c2nc(N3CCCCC3)nc(N3CCNCC3)n2)CC1,-3.7%,-0.8%
Cc1ccc(C(=O)O)cc1[N+](=O)[O-],-5.3%,2.9%
CC(C)(C)c1nc(SCC(=O)NC2CCCC2)c2ccccc2n1,-2.3%,0.7%
COc1cc(OC)c(OC)cc1CNCCSc1nnnn1-c1ccccc1,-2.1%,.
CC(=O)Nc1ccc(NC(=O)CSc2nnc(-c3ccco3)n2Cc2ccco2)cc1,-3.0%,-1.5%

# A different layout for 4 compounds above.
Cc1ccc(C2N(c3ccc(F)cc3)C(=O)C3CCCN32)cc1 (stereo not given)
  GCN5L2 inh: -5.3% | N370S GC mod: 0.4%
COc1ccc(-c2csc(Nc3cccnc3)n2)cc1OC
  GCN5L2 inh: -12.2% | N370S GC mod: -2.0%
O=C(CSc1nnc(-c2c[nH]c3ccccc23)o1)N1CCCCC1
  GCN5L2 inh: -19.9% | N370S GC mod: -17.9%
COc1cc(OC)c(OC)cc1CNCCSc1nnnn1-c1ccccc1
  GCN5L2 inh: -2.1% | N370S GC mod: .

# Assay outcomes from PubChem.
